Screening results as filed in PubChem BioAssay.
YopH inh = inhibitors of Yersinia enterocolitica YopH tyrosine phosphatase; fluorescence Ex485/Em525; inhibition, %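 (about 10 µM by stock and volumes)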; 0.16% of 140,000 active; AID 898;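 active = inhibition of 50% or more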;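 note: controls were vehicle for no effect and minimum signal wells for full effect; inactives centre near -20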
RecA splice inh = inhibitors of M. tuberculosis RecA intein splicing | 0.75% of 290,000 active | cell-free RecA intein splicing, fluorescence | inhibition, %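 (about 9 µM by stock and volumes)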 | P9WHJ3 | AID 2221; in the data active = inhibition above about 30%; inconclusive = no clear call, values can overlap the other calls;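 note: 0% = vehicle wells and 100% = reference inhibitor control wells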
Target sequence (P9WHJ3 whole entry, looked up, canonical isoform): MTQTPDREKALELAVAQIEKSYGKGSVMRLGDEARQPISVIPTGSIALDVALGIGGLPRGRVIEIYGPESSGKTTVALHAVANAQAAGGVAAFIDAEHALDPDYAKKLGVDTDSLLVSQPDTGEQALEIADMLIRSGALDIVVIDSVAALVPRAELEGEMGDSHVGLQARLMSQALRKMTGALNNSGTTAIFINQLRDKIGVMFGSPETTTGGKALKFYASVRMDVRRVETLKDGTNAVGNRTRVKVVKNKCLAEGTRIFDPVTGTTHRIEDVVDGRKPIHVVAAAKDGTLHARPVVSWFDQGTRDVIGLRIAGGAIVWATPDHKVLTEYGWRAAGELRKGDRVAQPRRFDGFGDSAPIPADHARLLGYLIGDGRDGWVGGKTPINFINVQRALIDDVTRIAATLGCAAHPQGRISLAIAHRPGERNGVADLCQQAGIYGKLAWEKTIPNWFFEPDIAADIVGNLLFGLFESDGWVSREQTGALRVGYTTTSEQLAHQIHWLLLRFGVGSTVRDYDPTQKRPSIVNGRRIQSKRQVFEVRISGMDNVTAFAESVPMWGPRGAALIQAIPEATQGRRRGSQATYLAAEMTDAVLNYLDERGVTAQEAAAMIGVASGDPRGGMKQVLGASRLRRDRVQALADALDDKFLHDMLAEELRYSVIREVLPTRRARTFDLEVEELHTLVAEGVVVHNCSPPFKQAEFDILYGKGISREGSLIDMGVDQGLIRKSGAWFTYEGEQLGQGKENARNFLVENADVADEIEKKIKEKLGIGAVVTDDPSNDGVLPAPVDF
Mtb H37Rv = M. tuberculosis H37Rv growth inhibitors, H37Rv strain (AID 1626); M. tuberculosis H37Rv growth inhibition; higher % means a stronger effect; 0.95% of 220,000 active; inhibition, % at 10 µM, or IC50 in µM where a hit was titrated;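 active = confirmed in a dose series; inconclusive = inhibition above 80% but not taken into the dose series; inactive = below 80% or under 30% at every dose of the series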;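 note: bacteria incubated seven days before Alamar blue readout; 0% = bacteria only wells and 100% = bacteria with antibiotic wells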
Mtb betalactam = beta-lactam sensitization of Mtb H37Rv; M. tuberculosis H37Rv growth with meropenem, percent inhibition; hits of this screen are not shown here; inhibition, % at 25 µM; 0.27% of 330,000 active; AID 434955;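 active = about 74% or more and at least 40 points above the plate without the antibiotic, then above 30% in a dose series; inconclusive = first-round hits that could not be retested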;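 note: growth measured after seven days incubation then overnight dye step; 0% = bacteria only wells and 100% = bacteria with antibiotic; twin plates without the antibiotic show which effects depend on it; some results filed as inactive read as strong as hits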
Arbovirus anti = antivirals against arbovirus infection; arbovirus infection cell-based antiviral screen; inhibition, % at 10 µM; 0.37% of 200,000 active; AID 1251;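 active = inhibition from about 30%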;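 note: bluetongue infection of BSR cells; cell survival read as ATP light after 72 h; 0% = infected wells without compound and 100% = uninfected wells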
Arbovirus anti repeat = recorded beside Arbovirus anti, whose call it bears; inhibition, %; measured here: 10K subset replicate screen; many hits read low in the repeat;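 first of two repeat runs on a subset; 0% = infected and 100% = uninfected wells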
Numbers without * were called inactive; ? = inconclusive; . = no result given. A portion of the library. The share of hits here may be higher or lower than overall.

Start of the listing, in advance:
SMILES | YopH inh | RecA splice inh | Mtb H37Rv | Mtb betalactam | Arbovirus anti | others
NC(=O)c1cc(C(=O)c2ccccc2Cl)c[nH]1 | . | -0.7 | 3% | 5 | 5
O=C(NCc1ccccn1)C(=O)Nc1nc(C23CC4CC(CC(C4)C2)C3)cs1 | . | 3.9 | ? | 100 | -33

The whole of this part, repeating the preview:
SMILES | YopH inh | RecA splice inh | Mtb H37Rv | Mtb betalactam | Arbovirus anti | others
NC(=O)c1cc(C(=O)c2ccccc2Cl)c[nH]1 | . | -0.7 | 3% | 5 | 5
O=C(NCc1ccccn1)C(=O)Nc1nc(C23CC4CC(CC(C4)C2)C3)cs1 | . | 3.9 | ? | 100 | -33
Cc1cccc(OC(C)C(=O)NCc2ccc(S(N)(=O)=O)cc2)c1 (centres undefined) | -28 | 0.9 | -3% | -2 | 1
CC(C)Cc1nnc(NC(=O)c2ccc([N+](=O)[O-])cc2)s1 | -34 | 2.4 | 9% | -8 | 6
COc1ccc(S(=O)(=O)N2CCNCC2)cc1OC | . | -5.0 | 2% | -5 | 4
O=C(c1cc2ccccc2oc1=O)N(Cc1ccco1)Cc1cccs1 | -18 | -6.5 | -4% | -1 | 4
COc1ccc(S(=O)(=O)Nc2noc3ccccc23)cc1 | . | -3.4 | . | -5 | .
COc1ccc(NC(=O)CCC(=O)N2CCN(S(=O)(=O)c3ccc(C)cc3)CC2)c(OC)c1 | . | 2.0 | . | -3 | .
CC(C)CCNc1nc(N2CCCC2)c2c(c1C#N)CCN(C)C2 | 5 | 0.4 | 10% | 77 | -13
CCCCCCCC(=O)NNC(=O)CCC(=O)O | -18 | -1.3 | . | -7 | 5
O=C(Nc1ccc(N2CCOCC2)c(Cl)c1)c1ccc(S(=O)(=O)N2CCOCC2)cc1 | . | 3.0 | . | -3 | .
COc1cccc(/C=N/NC(=O)CCNc2n[nH]c(=O)[nH]c2=O)c1OC | . | -0.6 | -1% | -1 | 3
CS(=O)(=O)N(CC(=O)N1CCCC1)c1ccc(Cl)c(Cl)c1 | -21 | -0.6 | 6% | 2 | 5
CC(=O)CC(=O)C1C(=O)N(C)C(=O)N(C)C1=O | . | 2.7 | -12% | -4 | 26
CCNC(=S)N1CCc2ccccc2C1 | . | . | 5% | 0 | -3
CC(NC(=O)c1ccccc1F)c1nnc(SCC(=O)Nc2nccs2)n1C (centres undefined) | . | -0.2 | . | -2 | .
C=C(C)Cn1c(Sc2nnc(C)s2)nc2c1c(=O)[nH]c(=O)n2C | 8 | -0.5 | 0% | -2 | 14
O=C(NCc1nnc(SCC(=O)N2CCCCC2)o1)c1c(F)cccc1F | . | 2.7 | . | -7 | .
COc1ccc(S(=O)(=O)O/N=C2\CCSc3ccc(C)cc32)cc1 | 5 | 5.2 | -5% | 5 | -5
CCOc1ccc(N=C(NN)c2ccc3ccccc3n2)cc1 | -15 | 2.4 | ? | 98 | -10
CCOC(=O)Cn1c(=O)oc2cc(S(=O)(=O)Nc3cccc(C)c3)ccc21 | -32 | -0.8 | -4% | 1 | 6 | Arbovirus anti repeat=0
CCOc1c(Br)cc(Br)cc1/C=C1\SC(N)=NC1=O | . | -2.0 | . | 4 | .
CC(=O)c1ccc(N2CCCC2)c(F)c1 | -20 | -0.8 | -9% | -1 | 7
COc1cccc(/C=N/NC(=O)C(=O)NCc2cccnc2)c1O | -23 | 0.9 | -2% | 48 | -15
O=C(Nc1ccc(NC(=S)NC(=O)c2ccccc2F)cc1)c1cccs1 | . | 0.9 | 15% | 47 | -11

Next compounds
SMILES | YopH inh | RecA splice inh | Mtb H37Rv | Mtb betalactam | Arbovirus anti | others
CC1CCN(c2nc(-c3ccccc3O)nc3ccccc23)CC1 | 2 | 8.1 | -2% | -5 | 9
CCCOC1CCCN(C(=O)c2ccc(OC3CCN(C(=O)COC)CC3)cc2)C1 (centres undefined) | . | -4.7 | . | -7 | .
COc1ccc(Nc2cc(Nc3cccc(OC)c3)ncn2)cc1 | . | 0.1 | . | 0 | .
CCOCCCNC(=O)C(NC(=O)Cc1cccs1)c1ccccc1 (centres undefined) | . | -1.0 | 4% | 3 | 8
COc1ccc(C)cc1N(C(=O)c1ccc(C#N)cc1)C1=NC(C)(C)CS1 | . | 0.9 | . | 1 | .
CC12CC3CC(C)(C1)CC(C(=O)NCc1cccnc1)(C3)C2 | . | 1.4 | . | 3 | .
O=C(CCCc1ccccc1)NCCc1cnc[nH]1 | . | -1.7 | . | -4 | .
COc1cc(NC(=O)c2cc(OC)c(OC)c(OC)c2)ccc1NC(=O)c1cccs1 | . | -2.2 | . | -3 | .
O=C(NC1CCCCCC1)C1CCN(S(=O)(=O)N2CCC3(CC2)OCCO3)CC1 | -33 | 11 | 3% | -4 | 4
NS(=O)(=O)c1ccc(NC(=O)COC(=O)c2cc3ccccc3oc2=O)cc1 | . | -1.1 | -9% | -5 | .
CC1(C)CC(=O)C2=C(C1)OC(N)=C(C#N)C2c1ccsc1 (centres undefined) | -30 | 7.2 | -4% | 3 | -2
CCCCC(=O)N1CCN(c2nc3ccc(F)cc3s2)CC1 | . | -7.7 | . | 1 | .
CCOC(=O)c1sc(=S)n(C)c1NC(=O)c1ccccc1 | -16 | 1.5 | -8% | 5 | -8
COc1cc(OC)cc(C(=O)OC/C(O)=C(\C#N)c2nc3ccccc3[nH]2)c1 | . | -1.3 | 4% | 23 | .
Nc1cc(=O)[nH]c(SCC(=O)Nc2ncc(C(F)(F)F)cc2Cl)n1 | . | 6.0 | 1% | 0 | 6
COc1ccccc1NC(=O)N1CCCC1C(=O)Nc1ccc2c(c1)OCO2 (centres undefined) | -13 | -2.6 | -8% | 6 | -11
COc1ccccc1C1SCCN1C(=O)c1ccc([N+](=O)[O-])cc1 (centres undefined) | 9 | 0.0 | 1% | -1 | 0
Cc1cc(C)c2c(=O)n(CC(=O)Nc3cccc(F)c3)sc2n1 | . | -2.4 | 29% | -6 | .
CCOC(=O)Nc1ccc2c(c1)nc1n2CCN(CCOC)C1 | . | -0.4 | . | 1 | .
O=S(=O)(c1ccc(NC(=S)NCCC(c2ccccc2)c2ccccc2)cc1)N1CCOCC1 | -15 | 17 | 4% | 57 | -30
CCc1nnc(NC(=O)CSc2nnc(C)c(=O)n2N)s1 | . | -0.7 | . | -12 | .
Cc1ccnc(NS(=O)(=O)c2ccc(N3C(=O)Nc4ccccc4N3O)cc2)c1 | . | 5.6 | 3% | 0 | 4
O=C(NCCOC(=O)c1ccc(C(=O)OCCNC(=O)c2cccnc2)s1)c1cccnc1 | 19 | 0.4 | -11% | -10 | 4
O=C(CSc1ccccn1)Nc1ccc(Cl)cn1 | . | -2.0 | -1% | 7 | 0
COc1ccc(NC(=O)CCCc2ccc(OC)c(C)c2)cc1 | . | -4.7 | . | -10 | .

Of the compounds above, these contain a nitro group on carbon.
SMILES | YopH inh | RecA splice inh | Mtb H37Rv | Mtb betalactam | Arbovirus anti | others
CC(C)Cc1nnc(NC(=O)c2ccc([N+](=O)[O-])cc2)s1 | -34 | 2.4 | 9% | -8 | 6
COc1ccccc1C1SCCN1C(=O)c1ccc([N+](=O)[O-])cc1 (centres undefined) | 9 | 0.0 | 1% | -1 | 0

Next part.
SMILES | YopH inh | RecA splice inh | Mtb H37Rv | Mtb betalactam | Arbovirus anti | others
CCc1ccc(NC(=O)Cn2c3[n+](c4c(F)c(F)ccc42)CCCCC3)cc1 | . | 0.7 | 3% | 56 | 17
CC1CCCCC1NC(=S)NC(=O)c1sc2ccccc2c1Cl (centres undefined) | . | 4.3 | 9% | -1 | 11
CCOC(=O)C1CCN(C(=O)c2cc(S(=O)(=O)N3CCc4ccccc43)ccc2OC)CC1 | . | 1.1 | . | -5 | .
Cn1[nH]c(CSc2ccc(Cl)cc2)cc1=O | . | 93* | 5% | -8 | -2
CC(C)(C)NS(=O)(=O)c1ccc(CCC(=O)O)cc1 | 33 | -0.1 | -4% | . | 14
CN(C)C(=O)c1cn(-c2ccccc2)nc1-c1cc2ccccc2oc1=O | . | 7.7 | -3% | -5 | 4
CN(C)c1nc(N2CCOCC2)nc(N(c2ccccc2)c2ccccc2)n1 | -33 | -0.3 | 3% | . | 6
O=C(N/N=C/c1ccoc1)c1cc(Br)ccc1O | . | -1.3 | . | 2 | .
Cc1cccc(NC(=O)Nc2ccccc2)n1 | . | -1.8 | . | 1 | .
CC(=O)Oc1ccc2c(=O)oc(-c3ccccc3)nc2c1 | . | 5.4 | . | 2 | .
COCCn1c(SCC(=O)NCc2ccco2)nc2cccnc21 | -23 | 1.7 | -13% | -8 | 6
C/C(=N\NC(=O)C(O)c1ccccc1)c1ccc(C)s1 (centres undefined) | . | 0.5 | . | 9 | .
Cc1c(Cl)cccc1-n1c(SCC(=O)NCc2cccs2)nnc1-c1ccncc1 | -36 | 1.9 | 0% | 2 | 6
Cc1oc(C(=O)O)cc1CSCc1cc(C(=O)O)c(C)o1 | -14 | -1.8 | 1% | 7 | 13
Cc1c(-c2ccn[nH]2)cc(NC(=O)c2ccc(Cl)cc2)c(=O)n1N | . | -0.3 | 9% | -10 | -8
CN1CCN(/N=C/c2ccc(-c3ccc([N+](=O)[O-])cc3Cl)o2)CC1 | . | 0.5 | ? | 33 | -10
COc1ccc(NC(=O)CSCC(=O)Nc2sccc2C#N)cc1 | . | 4.8 | . | -7 | .
Cc1ccccc1CN1CCNC(=O)C1CC(=O)NC1CCCCCCC1 (centres undefined) | . | 8.0 | . | 0 | .
CCCn1nnnc1SCC(=O)Nc1ccc(F)cc1 | -13 | -1.5 | -5% | 0 | 5
O=C1C2C3C=CC(C4CC34)C2C(=O)N1c1cccc2ccccc12 (centres undefined) | . | 2.5 | . | -2 | .
COC(=O)CC1=NN(c2ccccc2)C(=O)/C1=C\c1ccc(OC)cc1 | -4 | 23 | -2% | -2 | -4
Cc1ccc(C(=O)Nc2nc3ccc(S(C)(=O)=O)cc3s2)cc1C | . | -0.4 | . | 0 | .
Cc1ccccc1NC(=S)NCC1CCN(C(C)c2ccccc2)C1 (centres undefined) | . | 2.0 | -4% | 0 | -4
CN(C)c1ccc(NC(=O)C(=O)NCCOc2ccccc2)cc1 | . | 4.0 | -6% | -2 | -11
CCCCOc1ccc(C(O)C(CN2CCOCC2)c2ccccc2)cc1 (centres undefined) | . | 3.2 | 1% | 1 | .

No new results follow: entries from further up.
SMILES | YopH inh | RecA splice inh | Mtb H37Rv | Mtb betalactam | Arbovirus anti | others
CCc1ccc(NC(=O)Cn2c3[n+](c4c(F)c(F)ccc42)CCCCC3)cc1 | . | 0.7 | 3% | 56 | 17
CC1CCCCC1NC(=S)NC(=O)c1sc2ccccc2c1Cl (centres undefined) | . | 4.3 | 9% | -1 | 11

More records
SMILES | YopH inh | RecA splice inh | Mtb H37Rv | Mtb betalactam | Arbovirus anti | others
CC(C)CCn1c(CN2CC(C)OC(C)C2)nc2c1c(=O)n(C)c(=O)n2C (centres undefined) | . | -1.1 | . | 2 | .
CCn1c(COc2ccc(Cl)cc2)nnc1SC1CCc2ccccc2C1=O (centres undefined) | -15 | 62* | 4% | 2 | -10
O=C(NNC(=O)C1CCN(S(=O)(=O)c2ccc(Cl)cc2)CC1)c1ccncc1 | . | 2.4 | -13% | -12 | -4
O=c1c2ccccc2nc(-c2ccco2)n1/N=C/c1ccccc1O | -8 | . | 2% | -6 | 10
CCN(CC(=O)Nc1ccc2c(c1)OCCO2)C(=O)/C=C/c1ccc(OC)c(OC)c1 | . | 0.4 | . | 3 | .
O=C(CSc1ncnc2ccccc12)Nc1ccc2c(c1)OCCO2 | . | 4.7 | 0% | -8 | -3
O=C(NC1CCN(Cc2ccccc2)CC1)c1ccc2c(c1)OCCCO2 | . | 0.3 | . | -2 | .
O=C(NC1CC(=O)N(c2cccc(F)c2)C1)C(=O)c1c[nH]c2ccccc12 (centres undefined) | . | 2.0 | . | -8 | .
Nc1ccccc1C(=O)NC12CC3CC(CC(C3)C1)C2 | . | 0.1 | . | -5 | .
COc1cc(OC)c(S(=O)(=O)NC(C)C)cc1S(=O)(=O)NC(C)C | . | -0.7 | -4% | -3 | 0
Cc1cccc(NC(=O)c2cc3ccccc3o2)c1 | 3 | 2.6 | 19% | 96 | 5
CCOC(=O)c1ccccc1NC(=O)CSc1nc(N)cc(N)n1 | -28 | 0.8 | 8% | 93 | -4
O=C1CCCc2[nH]c(-c3ccccc3)nc21 | . | -5.6 | -8% | 1 | -7
Cc1ccc(OCC(=O)Nc2cc(S(=O)(=O)N3CCOCC3)ccc2Cl)c([N+](=O)[O-])n1 | . | -2.3 | 0% | -5 | .
O=C(O)c1cc(-c2cccs2)nc2ccc(F)cc12 | . | 1.6 | . | -6 | .
COc1cccc(NC(=O)C(=O)N/N=C/c2ccc3c(c2)OCO3)c1 | . | 1.1 | . | -1 | .
COc1ccc(-c2[nH]ncc2N=Nc2cc(C)cc(C)c2)cc1 | . | -0.1 | 5% | 37 | -16
COc1ccc(CN2CCNC(=O)C2CC(=O)O)cc1OC (centres undefined) | -5 | -0.1 | 5% | -7 | 1 | Arbovirus anti repeat=-1
